Screening data from PubChem.
PINK1 expr mod = PINK1 expression modulation; PINK1 immunofluorescence, high-content cytometry, 24 h; Potency, µM (series often up to 76.6 µM), inactives show at the top dose activation (PINK1 increase), most hits filed as activators; hit rate 0.2% among 410,000; active = well fitted activation curve with a large enough effect; inconclusive = small, poorly fitted or top-dose-only effect; inactive = flat fitted curve, though single readings scatter; cell line not stated here;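 also: potency is read from the fitted curve at half-maximal effect; % of control where 0% means no effect; nearly all actives have a fitted effect of over 65% in size; a mitochondrial uncoupler was the plate control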
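PINK1 protein level read as immunofluorescence by microplate cytometer in a fixed, stained stable cell line after 24 h exposure to five compound concentrations, with CCCP as control.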
D2 agonist = activates the human D2 dopamine receptor | P14416 | hit rate 0.084% among 360,000 | DiscoveRx PathHunter D2 beta-arrestin, luminescence, 90 min; 100% = 57 uM dopamine signal | activation, % (test concentration not listed) | AID 624465; in the data active = activation above about 40%; inconclusive = about 15% to 40%; inactive = below about 15%; also: compound concentration not given in the record; the text of the record calls up to 30% inactive
Target sequence (P14416 whole entry, looked up): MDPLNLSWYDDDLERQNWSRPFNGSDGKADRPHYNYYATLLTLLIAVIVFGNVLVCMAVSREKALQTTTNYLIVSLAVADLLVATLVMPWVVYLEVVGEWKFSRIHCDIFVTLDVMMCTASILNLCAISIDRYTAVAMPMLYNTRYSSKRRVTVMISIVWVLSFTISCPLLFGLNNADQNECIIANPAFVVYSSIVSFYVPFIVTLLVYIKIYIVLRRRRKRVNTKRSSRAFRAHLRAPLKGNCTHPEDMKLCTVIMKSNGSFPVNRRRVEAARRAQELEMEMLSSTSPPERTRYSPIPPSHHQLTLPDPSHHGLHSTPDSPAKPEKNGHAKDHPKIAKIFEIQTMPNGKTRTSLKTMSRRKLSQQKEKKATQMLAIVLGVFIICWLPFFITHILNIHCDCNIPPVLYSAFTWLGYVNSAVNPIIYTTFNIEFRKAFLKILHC
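DiscoveRx PathHunter D2 beta-arrestin cells (2,100/well) attached overnight, then compound-stimulated 90 min at 37 C in HBSS/10 mM HEPES/0.1% Tween-20 buffer; beta-galactosidase complementation read by luminescence after 1 h at ambient temperature. Dopamine 57 uM final (EC100) as control.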
TRPML1 ag = activates the human TRPML1 channel; hit rate 0.12% among 410,000; activation, % (concentration not given with the values); Q9GZU1; TRPML1-expressing cells, Ca2+ dye fluorescence, FDSS; host cell line not named in the record; reference of the full effect not given here; in the data active = activation above about 50%; inconclusive = about 30% to 50%; inactive = below about 30%; also: 0% is about no effect; the text of the record puts the active cut at 80%
Target sequence (Q9GZU1 whole entry, looked up): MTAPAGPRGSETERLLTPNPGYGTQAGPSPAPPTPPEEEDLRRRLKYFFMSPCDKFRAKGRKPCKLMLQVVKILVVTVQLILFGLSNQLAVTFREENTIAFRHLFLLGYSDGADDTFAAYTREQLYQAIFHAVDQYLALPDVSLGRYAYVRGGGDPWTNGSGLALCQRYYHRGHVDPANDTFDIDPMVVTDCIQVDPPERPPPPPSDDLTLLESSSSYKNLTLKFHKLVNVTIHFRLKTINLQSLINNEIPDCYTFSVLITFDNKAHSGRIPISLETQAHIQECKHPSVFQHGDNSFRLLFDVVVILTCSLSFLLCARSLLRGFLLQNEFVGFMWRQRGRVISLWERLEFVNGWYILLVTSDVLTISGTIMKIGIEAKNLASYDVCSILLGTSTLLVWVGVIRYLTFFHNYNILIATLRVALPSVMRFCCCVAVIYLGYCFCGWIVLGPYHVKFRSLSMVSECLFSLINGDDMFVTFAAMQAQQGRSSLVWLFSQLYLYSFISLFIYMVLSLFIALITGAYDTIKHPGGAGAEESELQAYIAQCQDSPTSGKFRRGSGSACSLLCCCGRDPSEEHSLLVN
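Tet-induced TRPML1-DL cells, 1,500 per well, cultured overnight, were loaded with a no-wash Ca2+ dye for 45–90 min. Calcium fluorescence was recorded on the FDSS for 110 s after compound addition, before the EC80 agonist (4 uM 54-4) was added.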
D2 potentiator = positive allosteric modulators of human D2 dopamine receptor; potentiation, % (concentration not given with the values); DiscoveRx D2 beta-arrestin cells, luminescence, 90 min; 100% = 57 uM dopamine signal; hit rate 0.23% among 360,000; P14416; active = potentiation of 50% or more; inconclusive = 30% to 50%; inactive = 30% or less;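 also: compound concentration not given in the record; tested on top of an EC20 dose of dopamine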
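PathHunter beta-arrestin assay in DiscoveRx D2 cells. Compounds were added with an EC20 of dopamine (50 nM final) for 90 min at 37 deg C. Luminescence was read 1 h after detection reagent, with 57 uM dopamine as the EC100 control.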
Six1-Eya2 inh = Six1/Eya2 interaction inhibition. AlphaScreen GST-Six1/His-Eya2 binding, biochemical; active compounds read low; control for the full effect not named in the record. AID 651725. activity change, % (no concentration beside the values). Q15475+O00167. hit rate 0.56% among 360,000; in the data active = activity change below about -65%; inconclusive = about -30% to -65%; inactive = above about -30%; also: % is scaled to controls: 0 for no effect and ±100 for the full control effect
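Compounds are tested against tagged Six1 and Eya2 proteins bridged by glutathione donor and nickel acceptor beads; after a one-hour incubation at 37 °C without light, AlphaScreen emission is recorded.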
TRPML1 blocker = blocks the human TRPML1 channel; Q9GZU1; TRPML1-inducible cells, Ca2+ dye fluorescence, FDSS; active compounds read low; inhibition of EC80 agonist-evoked calcium signal; activity change, negative = inhibition, % (concentration not given with the values); hit rate 0.02% among 390,000; in the data active means activity change below about -50%; inconclusive means about -30% to -50%; inactive means above about -30%;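 also: stimulus is agonist 54-4 at its EC80 concentration; % is scaled to controls: 0 for no effect and ±100 for the full control effect; the text of the record puts the active cut at -80%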
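Calcium fluorescence in TRPML1-DL cells induced overnight with Tet: a 110 s read after compound pin addition, then a 110 s antagonist read after challenge with 54-4 at 4 uM final (EC80).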
Active calls of the source: *; u = inconclusive; x = not tested or not shown; [ ] = dose if it differs, or a comment.

mol,PINK1 expr mod,TRPML1 ag,TRPML1 blocker,Six1-Eya2 inh,D2 agonist,D2 potentiator
CCOC(=O)c1ccc(CN(Cc2ccc(F)cc2)S(=O)(=O)c2ccc(F)c(C(=O)Nc3ccc(Cl)cc3F)c2)cc1,-0.9%,1.7,38.0,x,x,x
COC(=O)C(=O)/C=C(\O)c1c(C)cc(C)cc1C,-0.4%,-0.9,15.5,-5.0,-3.0,-10.2
CCOC(=O)C1=C(C)n2c(s/c(=C3\C(=O)Nc4ccccc43)c2=O)=NC1c1ccc(OC)cc1 (stereo not given),-1.8%,0.1,0.4,-10.7,-3.0,-37.0
COc1ccc(OC)c(C(=O)c2coc3ccc(O)c(CN(C)C)c23)c1,0.5%,x,x,-1.4,2.2,18.6
CC1CCN(S(=O)(=O)c2ccc3[nH]cc(C(=O)NCCN4CCOCC4)c(=O)c3c2)CC1,1.5%,-0.4,8.6,0.3,2.7,15.2
COc1ccc(OCCSc2nnnn2C2CCCCC2)cc1,-1.4%,2.7,58.1,5.7,2.7,-7.5
C=CCOC(=O)C1=C[C@@H](c2ccc(C(F)(F)F)cc2)C[C@@H](OCCCCO)O1,5.0%,-1.2,26.1,-4.6,0.1,-22.0
COc1ccc(NC(=O)Cn2c(=O)sc3ccccc32)cc1,11.9%,1.1,-4.4,10.6,-6.8,2.1
Cc1ccc(S(=O)(=O)N2CCOCC2)cc1NC(=O)COC(=O)/C=C/c1ccco1,1.6%,0.0,-5.1,-2.1,11.4,-2.5
CCCC(=O)Nc1cccc2c1CCCC2,-1.1%,-0.6,3.0,6.5,-5.8,-0.2
CN(C)S(=O)(=O)c1cccc(NC(=O)C2Cc3ccccc3CN2C(=O)c2ccccc2)c1 (stereo not given),0.6%,-1.5,-1.6,-12.8,-6.7,-5.0
OC[C@H]1O[C@@H](c2nc(-c3ccc(C4OCCO4)cc3)no2)[C@H](O)[C@@H]1O,0.0%,-0.2,x,0.2,-3.7,-3.9
CCN(CC)c1ccc(/C=N/NC(=O)CNC(=O)/C=C/c2ccco2)cc1,1.4%,4.0,-17.2,-20.7,-2.9,-12.3
Cc1nn(C)c(C)c1S(=O)(=O)N(CC(=O)NC1CCCCCC1)c1ccc(C(C)C)cc1,4.8%,0.2,6.2,2.8,-3.1,-8.1
Cc1ccc(NC(=O)NCCN2C(=O)C3C4C=CC(C4)C3C2=O)cc1 (stereo not given),-2.5%,1.3,-2.6,5.4,-3.1,-6.0
COc1cc(OC)cc(-c2oc(=O)c3cc(OC)c(OC)cc3c2C(F)(F)F)c1,0.6%,-0.3,0.4,0.0,-0.9,-3.7
COc1ccccc1-c1nnc(SCC(=O)NC2CCS(=O)(=O)C2)n1CCc1ccccc1 (stereo not given),-0.2%,0.4,22.3,0.2,-2.6,-5.2
COc1cc(C=O)ccc1OC(=O)N1CCOCC1,4.2%,x,x,8.1,-4.3,-8.2
Cc1nc2c(c(=O)c3ccccc3n2C)c(=O)n1-c1ccc(F)cc1,-1.6%,0.3,u,-2.0,-5.1,-2.8
CCOC(=O)C1=C(C)NC(=O)NC1c1c(OC)ccc2ccccc12 (stereo not given),2.0%,-0.5,0.6,-4.5,-0.6,-0.9
CC1CC(C)CN(S(=O)(=O)c2ccc(C(C)(C)C)cc2)C1 (stereo not given),7.5%,56.1*,-13.1,-0.9,6.2,-20.2
O=C(O)c1csc(Cc2ccccc2)n1,5.1%,-0.8,-17.2,12.0,5.2,-0.6
COc1cccc(C2=NOC(C(=O)Nc3cc(C)on3)C2)c1OC (stereo not given),0.7%,1.7,-9.3,3.3,4.9,-30.9
C=CCOC(=O)C1=C(C)N=C2SCCC(=O)N2C1c1cccs1 (stereo not given),3.6%,2.5,0.7,-11.5,0.7,-0.4
O=C(c1cccs1)N1CCN(c2cc(Cl)ccc2Cl)CC1,-0.4%,2.7,-5.6,5.0,6.6,-3.2
CCCCNc1nc(Oc2ccc(OCC)nn2)nc(N2CCOCC2)n1,2.6%,4.3,-8.1,x,x,x
COc1cc2c(cc1OC)C(c1cc(OC)c(OC)cc1[N+](=O)[O-])N(C(C)=O)CC2 (stereo not given),0.3%,-0.3,-2.3,4.5,3.1,3.9
Cc1cc(C)c(C)c(S(=O)(=O)N2CCSCC2)c1C,1.5%,x,x,-10.2,5.2,-5.6
CCCc1cc(C(=O)Nc2cc(Cl)ccc2O)no1,0.9%,0.6,9.4,-0.2,-2.1,8.1
CCC(Cc1ccccc1)n1c(=S)[nH]c2ccccc2c1=O (stereo not given),u,0.1,-2.7,-2.6,0.7,0.4
CC(=O)c1c(N2CCN(C(=O)c3ccco3)CC2)nc(=S)n(-c2ccccc2)c1C,-0.5%[38.3 µM],-0.1,7.9,-0.6,1.6,-15.0
COC(=O)CCC(=O)Nc1ccc(NC(C)=O)cc1,3.7%,0.3,9.8,0.8,-2.7,-3.5
O=C(NNC(=O)C1CCCN(S(=O)(=O)c2cccc(F)c2)C1)C1CC1 (stereo not given),-1.7%,0.1,11.9,-11.1,-0.5,-7.1
CC(=O)c1ccc(NC(=O)Nc2ccncc2)cc1,-0.9%,0.8,-4.6,7.4,u,2.8
O=c1cc2c(nn1Cc1ccccc1Cl)-c1ccccc1CC2,-2.5%,-0.5,35.0,11.3,-1.5,-4.7
COc1ccc(C2C(C(=O)N3CCC(C)CC3)c3ccccc3C(=O)N2C)cc1 (stereo not given),0.8%,-1.0,10.4,5.5,-3.8,-18.8
CCN(CCO)c1ncnc2onc(-c3ccc(F)cc3)c12,0.2%,x,x,3.3,-5.7,2.2
C=CCNC(=O)c1ccc2c3n(nc2c1)-c1ccc(Cl)cc1CO3,0.1%,0.3,-5.8,-12.6,-3.9,-6.6
CC1CCCCC1NC(=O)CNC(=O)c1cccs1 (stereo not given),-0.4%,-0.3,-5.3,3.2,-2.0,2.9
Cc1sc(-c2ccccn2)nc1OC(=O)c1ccc(F)cc1F,-0.6%,0.7,-13.4,-9.1,3.8,-3.9
COC(=O)c1cc(NC(=O)c2ccc3c(c2)N(Cc2cccc(Cl)c2)C(=O)c2ccccc2S3=O)cc(C(=O)OC)c1 (stereo not given),4.1%,-0.4,3.1,x,x,x
Cc1ccc(S(=O)(=O)N2CCC(C(=O)NC3CCCC3)CC2)cc1Cl,5.2%,-1.3,29.6,-15.2,-2.1,-22.4
Nc1c(-c2ccccc2)c(CN2CCOCC2)nn1-c1ccccc1,3.0%,0.1,8.8,17.2,-1.7,-9.0
COc1ccc(-n2ncc3c2CC(C)(C)CC3NC(=O)c2c(C)cc(=O)oc2C)cc1 (stereo not given),1.5%,0.9,-0.1,2.0,5.7,-4.3
CCOC(=O)Cn1c(=O)oc2cc(S(=O)(=O)NCCc3ccc(OCC)c(OCC)c3)ccc21,u,0.6,-6.3,2.3,-0.4,-7.5
O=C(Nc1cccc(C(F)(F)F)c1)/C(=C\c1ccco1)NC(=O)c1cccs1,u,1.2,-4.1,-1.0,-2.2,-15.2
Cc1ccc(N(Cc2ccc(C(=O)NN=C3CCN(C)CC3)cc2)S(C)(=O)=O)cc1C,-0.7%,1.5,0.1,1.0,-0.1,-12.0
Cc1ccc(Cn2nnc3c(=O)[nH]c(C4CCN(S(=O)(=O)c5ccccc5F)CC4)nc32)cc1,-0.1%,2.0,-5.1,-2.8,3.9,1.0
Cc1ccc(C)c(S(=O)(=O)N2CCN(C(=O)c3cnccn3)CC2)c1,10.1%[38.3 µM],-0.6,6.4,8.5,-0.4,-5.1
O=C(CSc1nnc(CNc2ccccc2)o1)c1ccc2c(c1)OCCO2,-1.2%[38.3 µM],0.4,-1.9,-16.3,-2.1,-4.0
COc1ccc(C(=O)NCCSc2ccccc2)cc1OC,-0.5%,0.1,-0.2,-0.6,1.1,-3.3
Cc1ccc(OCCSCc2nnc(NC(=O)Nc3cccc(Cl)c3)s2)cc1,u,1.3,2.7,-3.4,4.0,1.6
COc1cc(C(=O)N/N=c2/sc3ccccc3n2C)cc(OC)c1OC,6.0%,-1.0,11.2,-0.9,0.0,-2.6
CN(Cc1ccc(Cl)c(Cl)c1)C(c1cc2ccccc2o1)c1nnnn1C(C)(C)C (stereo not given),1.2%,6.1,x,-7.2,x,x
CCCC1C2C(=O)N(c3ccc(OC)cc3)C(=O)C2ON1c1ccccc1 (stereo not given),5.3%,-0.1,2.6,5.1,-3.1,-3.6
CC1CCN(S(=O)(=O)c2ccc(C(=O)NCc3ccco3)cc2)CC1,4.1%,0.8,4.7,-7.3,-4.8,9.9

Next part:
mol,PINK1 expr mod,TRPML1 ag,TRPML1 blocker,Six1-Eya2 inh,D2 agonist,D2 potentiator
CCOc1ccc(S(=O)(=O)Nc2nc3ccccc3nc2Nc2ccc(OC)cc2)cc1,-4.6%,-0.3,21.3,x,x,x
CCCc1[nH]nc2c1C1(CCN(C(=O)OCc3ccccc3)CC1)C(C#N)=C(N)O2,x,0.3,-9.1,-9.6,2.5,12.1
CC(C)CCc1noc(CN2CCC(CCN3CCCC3=O)CC2)n1,2.2%,-0.1,-6.9,3.4,-2.9,-6.1
CCOc1ccc(S(=O)(=O)c2cn(Cc3ccc(C)cc3)c3ccc(OC)cc3c2=O)cc1,-1.6%,4.6,-15.5,x,x,x
CCc1cc(=O)[nH]c(-n2[nH]c(-c3ccccc3)cc2=O)n1,0.3%,0.4,-1.7,-6.8,-5.6,5.0
CCCCn1c(SCC(=O)Nc2nnc(C(C)C)s2)nc2c1c(=O)n(C)c(=O)n2C,-6.4%[38.3 µM],0.3,0.2,-0.3,-0.1,8.4
Cc1cc(C)c(S(=O)(=O)N2CCN(C(=O)c3cc4ccccc4o3)CC2)c(C)c1,-0.3%,-0.3,35.7,-3.8,1.1,0.0
CC1C(=O)C(C)C(c2ccc([N+](=O)[O-])cc2)NC1c1ccc([N+](=O)[O-])cc1 (stereo not given),0.5%,-0.8,-10.3,5.8,-2.3,-0.2

Four entries from above, with each value named:
> CCCc1[nH]nc2c1C1(CCN(C(=O)OCc3ccccc3)CC1)C(C#N)=C(N)O2
  PINK1 expr mod: x
  TRPML1 ag: 0.3
  TRPML1 blocker: -9.1
  Six1-Eya2 inh: -9.6
  D2 agonist: 2.5
  D2 potentiator: 12.1
> CC(C)CCc1noc(CN2CCC(CCN3CCCC3=O)CC2)n1
  PINK1 expr mod: 2.2%
  TRPML1 ag: -0.1
  TRPML1 blocker: -6.9
  Six1-Eya2 inh: 3.4
  D2 agonist: -2.9
  D2 potentiator: -6.1
> CCOc1ccc(S(=O)(=O)c2cn(Cc3ccc(C)cc3)c3ccc(OC)cc3c2=O)cc1
  PINK1 expr mod: -1.6%
  TRPML1 ag: 4.6
  TRPML1 blocker: -15.5
  Six1-Eya2 inh: x
  D2 agonist: x
  D2 potentiator: x
> CCc1cc(=O)[nH]c(-n2[nH]c(-c3ccccc3)cc2=O)n1
  PINK1 expr mod: 0.3%
  TRPML1 ag: 0.4
  TRPML1 blocker: -1.7
  Six1-Eya2 inh: -6.8
  D2 agonist: -5.6
  D2 potentiator: 5.0
